Screening results: PubChem, several laboratories
Mtb growth – M. tuberculosis H37Rv growth inhibitors, H37Rv strain (AID 1626); M. tuberculosis H37Rv growth inhibition; higher % means a stronger effect; inhibition, % at 10 µM; hits with a dose series show IC50 in µM; actives 0.95% (n = 220,000);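 active means confirmed in a dose series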;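 further: bacteria incubated seven days before Alamar blue readout; 0% = bacteria only wells and 100% = bacteria with antibiotic wells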
RecA intein inh – inhibitors of M. tuberculosis RecA intein splicing | P9WHJ3 | cell-free RecA intein splicing, fluorescence | inhibition, %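 (about 9 µM by stock and volumes)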 | actives 0.75% (n = 290,000) | AID 2221; in the data active means inhibition above about 30%;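 further: 0% = vehicle wells and 100% = reference inhibitor control wells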
Target sequence (P9WHJ3 whole entry, looked up): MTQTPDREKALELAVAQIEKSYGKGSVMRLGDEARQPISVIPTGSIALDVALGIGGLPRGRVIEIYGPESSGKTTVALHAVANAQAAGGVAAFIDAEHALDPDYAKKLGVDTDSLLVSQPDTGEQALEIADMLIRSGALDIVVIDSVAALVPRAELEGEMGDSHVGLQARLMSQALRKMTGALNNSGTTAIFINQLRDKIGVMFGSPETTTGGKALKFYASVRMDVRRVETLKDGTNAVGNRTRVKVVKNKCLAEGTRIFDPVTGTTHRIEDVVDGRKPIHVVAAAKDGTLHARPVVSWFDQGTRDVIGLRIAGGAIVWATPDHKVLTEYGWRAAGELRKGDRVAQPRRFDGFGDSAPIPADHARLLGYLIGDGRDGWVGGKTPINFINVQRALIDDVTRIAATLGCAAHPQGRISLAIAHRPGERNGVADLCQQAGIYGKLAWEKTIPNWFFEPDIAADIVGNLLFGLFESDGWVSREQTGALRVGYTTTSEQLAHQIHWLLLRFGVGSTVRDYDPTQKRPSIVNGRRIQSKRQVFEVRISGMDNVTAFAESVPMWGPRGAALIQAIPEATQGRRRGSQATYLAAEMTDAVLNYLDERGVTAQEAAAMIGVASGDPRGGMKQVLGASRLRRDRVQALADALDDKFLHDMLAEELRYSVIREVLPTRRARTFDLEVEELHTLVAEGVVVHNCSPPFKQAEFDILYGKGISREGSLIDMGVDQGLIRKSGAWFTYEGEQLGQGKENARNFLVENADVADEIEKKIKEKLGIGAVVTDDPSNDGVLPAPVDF
Mtb betalactam – beta-lactam sensitization of Mtb H37Rv | M. tuberculosis H37Rv growth with meropenem, percent inhibition; hits of this screen are not shown here | inhibition, % at 25 µM | actives 0.27% (n = 330,000) | AID 434955;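 active means about 74% or more and at least 40 points above the plate without the antibiotic, then above 30% in a dose series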;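 further: growth measured after seven days incubation then overnight dye step; 0% = bacteria only wells and 100% = bacteria with antibiotic; twin plates without the antibiotic show which effects depend on it; some results filed as inactive read as strong as hits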
Arbovirus anti – blocks arbovirus infection; arbovirus infection cell-based antiviral screen; inhibition, % at 10 µM; actives 0.37% (n = 200,000);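 active means inhibition from about 30%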;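 further: bluetongue infection of BSR cells; cell survival read as ATP light after 72 h; 0% = infected wells without compound and 100% = uninfected wells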
YopH PTP inh – inhibitors of Yersinia enterocolitica YopH tyrosine phosphatase. fluorescence Ex485/Em525. inhibition, %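 (about 10 µM by stock and volumes)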. actives 0.16% (n = 140,000);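 active means inhibition of 50% or more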;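 further: controls were vehicle for no effect and minimum signal wells for full effect; inactives centre near -20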
Arbovirus anti repeat – further read-out of Arbovirus anti, marked with its call; inhibition, %; measured here: 10K subset replicate screen; many hits read low in the repeat;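 first of two repeat runs on a subset; 0% = infected and 100% = uninfected wells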
Starred values were filed as active, the others as inactive; . = not tested or not shown. A portion of the library, so the mix of outcomes need not match the whole.

SMILES	Mtb growth	RecA intein inh	Mtb betalactam	Arbovirus anti	YopH PTP inh	others
O=C(NNC(=O)c1cccs1)c1ccc(Cl)nc1	.	-2.3	-2	.	.
O=C(c1cc2ccccc2c(=O)o1)N1CCc2ccccc2C1	.	-0.3	-5	3	-21
Cc1ccc(S(=O)(=O)NCCN2CCOCC2)cc1	-3%	-0.2	-5	2	12
Cc1cc2ccccn2c1C(=O)Nc1ccc(Cl)cc1	-2%	3.4	-7	6	.
COc1ccccc1CN(C)C(=O)CNC(=O)c1cccc(Cl)c1	.	0.4	-7	.	.
COc1cc(/C=N/N=C(/C(=O)c2ccccc2)c2ccccc2)cc(OC)c1O	12%	9.4	6	-37	-18
Cc1cc(C(=O)COc2ccccc2C#N)c(C)n1C1CC1	.	10	66	.	.
CCOc1ccccc1NC(=O)C1CCN(S(=O)(=O)c2ccc(OC)c(OC)c2)CC1	1%	-1.0	-1	0	0	Arbovirus anti repeat=2
O=C(NCC1CCCO1)c1ccc2c(c1)C(=O)N(c1cccc([N+](=O)[O-])c1)C2=O (configuration not stated)	.	0.6	-1	.	.
CN(C)/C=N/C(=S)Nc1ccc(Br)cc1F	4%	-2.4	7	0	-8
CCOc1ccccc1/C=N/NC(=O)c1cccc(S(=O)(=O)N(CC)CC)c1	-16%	5.2	1	-2	.
CCN(CC)C(=O)Cn1cc(S(=O)(=O)CC(=O)NCCc2ccccc2)c2ccccc21	.	1.9	1	.	.
CC(C)C(=O)NNS(=O)(=O)c1ccccc1[N+](=O)[O-]	4%	2.7	5	7	-1
COc1cc(CC(=O)OCC(=O)Nc2cc([N+](=O)[O-])ccc2F)cc(OC)c1OC	16%	0.1	6	3	-25
Cc1ccc2c(C)c(C(=O)N3CCCCC3CO)oc2c1C (configuration not stated)	.	6.2	6	.	.
COC(=O)c1[nH]c2ccc(F)cc2c1NS(=O)(=O)c1ccc(F)c(C)c1	2%	1.9	-10	-2	-34
CCSC1(SCC)N=C(N)C2(C#N)C(c3ccc(OC)c(OC)c3OC)C12C#N (configuration not stated)	-3%	2.7	-1	-15	.
Cn1ccnc1SCC(=O)NC1CCCC1	.	0.5	-1	.	.
Cc1ccc(SCCC(=O)OC(C)C(=O)Nc2ccccc2)cc1 (configuration not stated)	.	-1.1	-3	.	.
O=C(O)c1ccc2c(c1)C(=O)N(c1ccc(Cl)cn1)C2=O	2%	-0.1	-2	4	-17	Arbovirus anti repeat=-2
O=C(NCc1cccnc1)c1nc(-c2ccccc2)n(-c2ccccc2)n1	.	-1.5	9	.	.
COc1cc(C)nc(Oc2ccc(/C=N/O)cc2)n1	-6%	0.9	-8	1	-27
N/C(=N\OC(=O)Cc1ccc(-c2ccccc2)cc1)c1ccncc1	14%	2.5	-3	24	.
O=C1CC2(CCCCC2)Oc2ccccc21	2%	-0.3	5	.	.
CCOc1ccccc1C(=O)OCC(=O)Nc1nnc(-c2ccccc2)o1	.	1.7	85	.	.
SMILES	Mtb growth	RecA intein inh	Mtb betalactam	Arbovirus anti	YopH PTP inh	others
CCN(CC)CCN(Cc1cc2ccc(C)cc2[nH]c1=O)C(=S)Nc1ccccc1C(=O)OC	8%	0.6	1	-15	.
Cc1cccc(N2CCN(C(=O)COc3cc(=O)n(C)c4ccccc34)CC2)c1C	8%	2.3	79	5	0
COc1ccc(CCNC(=O)C(C)OC(=O)c2nsc(Cl)c2Cl)cc1OC (configuration not stated)	.	1.3	6	.	.
COc1ccccc1CNC(=O)CCC(=O)N1Cc2cccc(OC)c2Oc2ncccc21	.	-0.5	-10	.	.
NC(=O)C1CCN(C(=O)c2ccc(-c3ccccc3)cc2)CC1	-7%	-3.0	-7	6	-10
CCCn1c(-c2cccnc2Cl)nc2cc(Cl)c(Cl)cc21	6%	5.9	-2	-1	-26
CC(CN1CCCCC1)OC(=O)CCc1ccccc1 (configuration not stated)	-4%	-0.2	0	-2	.
CN(C)C=NCCn1c(N2CCOCC2)nc2c1c(=O)n(C)c(=O)n2C	-2%	-1.4	5	6	-19
CCn1c(CSCc2ccc(C)cc2)nnc1SCC(=O)N1CCN(c2ccccc2)CC1	8%	4.2	8	-3	-12
O=C(CN1C(=O)/C(=C\c2ccccc2F)SC1=S)Nc1nc2ccccc2s1	4%	1.7	12	3	-46
COc1ccc(C2NC(C(=O)O)CS2)cc1COCC(F)(F)F (configuration not stated)	-3%	-2.2	-11	0	-28
O=C(Nc1ccc2c(c1)OCO2)c1c[nH]c(=O)n(-c2ccc(F)cc2)c1=O	.	13	2	.	.
CC1(C)CC(=O)C=C(Nc2ccc(F)cc2)C1	-9%	1.4	-1	11	-48
CC(=O)NC1(c2ccccc2)CCN(CC(=O)N2CCC(C)CC2)CC1	3%	1.3	-4	-1	.
CN(Cc1ccccc1)C(=O)COc1ccccc1Cl	.	-0.7	0	.	.
COc1ccc(SC[C@H](CC(C)C)N2CCN(CCc3ccccc3)CCC2=O)cc1	19%	4.0	16	.	.
O=C(CSc1nc2c(c(=O)n1-c1ccc(Cl)cc1)SCC2)N1CCOCC1	8%	-0.1	7	6	-17	Arbovirus anti repeat=4
CCC(C)(C)NC(=O)c1cc(OC)c(OC)cc1[N+](=O)[O-]	-13%	0.5	-8	1	-20
Cc1cc(C)c(C(=O)OCC(=O)NC(=O)c2ccccc2)c(C)c1	.	-2.7	-6	.	.
Cc1nnc(NC(=O)CSc2ccc(-c3ccco3)nn2)s1	-8%	0.8	-1	25	.
COC(=O)/C(=C1/Oc2ccc(C(C)(C)C)cc2S1)C(F)(F)F	-4%	.	0	8	-23
O=C(c1ccc(Cl)c(S(=O)(=O)N2CCCC2)c1)N1CCCCC1	.	-0.1	-12	.	.
CCc1ncc(CN2CCCC(C(=O)Nc3ccc(-c4cscn4)cc3)C2)cn1 (configuration not stated)	.	0.1	-1	.	.
COc1ccc(OC)c(/C=N/NC(=O)c2c(C)nc3ccc(C)cn23)c1	.	-4.7	8	.	.
CCc1nc(NCc2cccnc2)c2oc3ccccc3c2n1	4%	2.8	2	-3	-34

Next part, overlapping the part above by 2 compounds.
SMILES	Mtb growth	RecA intein inh	Mtb betalactam	Arbovirus anti	YopH PTP inh	others
COc1ccc(OC)c(/C=N/NC(=O)c2c(C)nc3ccc(C)cn23)c1	.	-4.7	8	.	.
CCc1nc(NCc2cccnc2)c2oc3ccccc3c2n1	4%	2.8	2	-3	-34
Cc1ccc(NC(=O)CCNC(=O)c2ccc(Cl)cc2)cc1F	68%	-0.4	52	0	-29
Cc1ccc(C(=O)Nc2cccc(C(F)(F)F)c2)cc1NC(=O)c1nccnc1N	-3%	-6.1	1	.	.
CC12CCC(C(=O)Nc3ccccc3)(C(Br)C1=O)C2(C)C (configuration not stated)	-2%	1.1	-2	-10	-14
CC(=O)c1c(C)[nH]c(C(=O)COC(=O)c2ccc3c(=O)n4c(nc3c2)CCC4)c1C	0%	-4.1	1	-6	-43
Cc1ccc(NS(=O)(=O)c2cccc3nsnc23)cc1	-1%	1.5	-14	.	.
COc1ccc(CCNS(=O)(=O)c2c(N)n(C)c(=O)n(C)c2=O)cc1OC	-4%	-0.9	-9	3	.
CC(=O)c1ccc(NC(=O)c2ccc(C)c(Br)c2)cc1	-1%	3.9	3	-26	.
CN1CCN(C(=O)C2CC(=O)N(c3ccc(F)c(Cl)c3)C2)CC1 (configuration not stated)	-1%	-3.5	2	1	-58	Arbovirus anti repeat=-5
CN(CC(=O)Nc1c(F)cccc1F)Cc1cccs1	.	-0.3	-8	.	.
COc1ccc(Cl)cc1NC(=O)CCNC(=O)Cn1ccc2ccccc2c1=O	.	0.3	-1	.	.
CCOc1ccccc1-c1nc(CN(Cc2cnn(C)c2)C(C)C)c(C)o1	1%	1.5	-1	-2	.
Cc1cc(NC(=O)CSc2nnc(C)n2-c2ccccc2C)no1	8%	-2.6	1	13	.
COc1ccc(S(=O)(=O)N2CCN(CC(=O)c3ccc(O)c(O)c3)CC2)cc1	.	-2.0	4	.	.
O=C(CNc1cc(S(=O)(=O)N2CCOCC2)ccc1NCC1CCCO1)Nc1ccc(F)c(F)c1 (configuration not stated)	.	4.3	6	.	.
COc1ccccc1NC(=O)CC1C(=O)Nc2ccccc2N1C(=O)c1ccccc1 (configuration not stated)	6%	0.7	-7	2	.
O=C1c2ccccc2S(=O)(=O)N1Cc1cccc(S(=O)(=O)N2CCOCC2)c1	-9%	3.9	16	2	-46
Cc1ccc(NC(=O)NC2CCCCC2)c(C)c1	-6%	1.6	5	5	-15
COc1ccccc1C(=O)Nc1ccc2c(c1)nc1n2CCSC1	5%	.	-8	-10	1
COCCCNc1nc2nonc2nc1NCCSC	-6%	-1.2	-3	.	.
NS(=O)(=O)c1ccc(NC(=S)Nc2ccc(OCc3ccccc3)cc2)cc1	10%	6.2	-7	-3	.
COc1ccc(NC(=O)c2c(C)nn(Cc3ccccc3Cl)c2Cl)cc1Cl	-8%	-1.8	8	3	-20
O=[N+]([O-])c1ccc(N2CCN(Cc3ccccc3)CC2)nc1	-5%	-1.6	-5	-22	.
CCCCCCCCOC(=O)C1=C(C)Nc2nnnn2C1c1cccs1 (configuration not stated)	-3%	7.6	1	-38	-11
CCc1ccc(NC(=O)c2cc(S(=O)(=O)N3CCc4ccccc43)cn2C)cc1	.	0.3	0	.	.
O=C(c1ccc(NS(=O)(=O)c2ccc(F)cc2)cc1)N1CCC1	.	0.9	-10	.	.

Reprinted at random: 4 entries already listed.
SMILES	Mtb growth	RecA intein inh	Mtb betalactam	Arbovirus anti	YopH PTP inh	others
O=C(NCC1CCCO1)c1ccc2c(c1)C(=O)N(c1cccc([N+](=O)[O-])c1)C2=O (configuration not stated)	.	0.6	-1	.	.
O=[N+]([O-])c1ccc(N2CCN(Cc3ccccc3)CC2)nc1	-5%	-1.6	-5	-22	.
COc1ccc(S(=O)(=O)N2CCN(CC(=O)c3ccc(O)c(O)c3)CC2)cc1	.	-2.0	4	.	.
Cc1cc2ccccn2c1C(=O)Nc1ccc(Cl)cc1	-2%	3.4	-7	6	.

Arranged by heavy-atom count (lowest first): five of the compounds above
SMILES	Mtb growth	RecA intein inh	Mtb betalactam	Arbovirus anti	YopH PTP inh	others
CC(=O)c1ccc(NC(=O)c2ccc(C)c(Br)c2)cc1	-1%	3.9	3	-26	.
COc1ccccc1C(=O)Nc1ccc2c(c1)nc1n2CCSC1	5%	.	-8	-10	1
CCCCCCCCOC(=O)C1=C(C)Nc2nnnn2C1c1cccs1 (configuration not stated)	-3%	7.6	1	-38	-11
COc1ccc(NC(=O)c2c(C)nn(Cc3ccccc3Cl)c2Cl)cc1Cl	-8%	-1.8	8	3	-20
COc1ccc(Cl)cc1NC(=O)CCNC(=O)Cn1ccc2ccccc2c1=O	.	0.3	-1	.	.

By substructure: those above with a thiophene ring, fused or not
SMILES	Mtb growth	RecA intein inh	Mtb betalactam	Arbovirus anti	YopH PTP inh	others
O=C(NNC(=O)c1cccs1)c1ccc(Cl)nc1	.	-2.3	-2	.	.
CN(CC(=O)Nc1c(F)cccc1F)Cc1cccs1	.	-0.3	-8	.	.
CCCCCCCCOC(=O)C1=C(C)Nc2nnnn2C1c1cccs1 (configuration not stated)	-3%	7.6	1	-38	-11

More results:
SMILES	Mtb growth	RecA intein inh	Mtb betalactam	Arbovirus anti	YopH PTP inh	others
Cc1ccc(OCCCCN2CCC(C)CC2)c(Br)c1	0%	-2.5	-6	-11	-17
CSCCCNC(=O)c1ccc(OC2CCN(C(=O)c3cccnc3)CC2)cc1	-7%	-4.3	0	.	.
CCC(C)NC(=O)c1ccc(CS(=O)(=O)c2ccc(OC)cc2)o1 (configuration not stated)	-3%	-0.1	5	-3	-30	Arbovirus anti repeat=0
COc1cc(C(=O)NCC(=O)OCC(=O)Nc2nnc(-c3ccccc3)o2)cc(OC)c1OC	.	-1.4	0	.	.
O=C(CCC(=O)N1CCN(c2cccc(Cl)c2)CC1)c1cccs1	.	1.3	0	.	.
CS(=O)(=O)N(CCc1ccccc1)CC(=O)NCC1CCCO1 (configuration not stated)	-1%	3.1	-6	1	-23
Cc1ccc(NC(=O)COC(=O)C2CC(=O)N(Cc3ccccc3)C2)cc1S(=O)(=O)N(C)C (configuration not stated)	4%	2.0	7	2	.
O=C(CSc1ccc2nnc(-c3ccncc3)n2n1)NCc1ccco1	-8%	-1.5	0	2	2
O=C1C=CC(=O)N1Cc1ccccc1	.	2.5	-4	.	.
C/C(=N\NC(=O)c1nc2ccccn2c1C)c1cc2ccccc2o1	6%	-1.3	5	-11	.
Cn1c(N)c(C(=O)COC(=O)CCc2ccccc2)c(=O)n(C)c1=O	-4%	-0.9	12	5	.
